Bioassay records: PubChem BioAssay, National Center for Advancing Translational Sciences (NCATS)
ERG-DNA inh = qHTS for Small Molecule Inhibitors of the ERG Ets/DNA interaction | Transcriptional regulator ERG (Homo sapiens), P11308 | fluorescence polarization, His-ERG Ets domain / labelled DNA | Potency, µM (top dose mostly 76.9 µM), for the others: at the top dose FP activity, negative = inhibition, usual class: inhibitors | actives 0.028% (n = 370,000) | AID 624246, 2012; active means well fitted inhibition curve with a large enough effect in the polarisation, with a control signal flat; inconclusive means small, poorly fitted or top-dose-only effect, or effect the other way, or a change in a side signal; inactive means no such curve, though single readings can be large or run the other way; the % refers to the polarisation;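 further: polarization taken with two DNA probes labelled with fluorescein and Texas red; potency means the concentration at half of the fitted maximal effect; % of control where 0% means no effect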
Target sequence (P11308 whole entry, looked up, the tested form may be a part): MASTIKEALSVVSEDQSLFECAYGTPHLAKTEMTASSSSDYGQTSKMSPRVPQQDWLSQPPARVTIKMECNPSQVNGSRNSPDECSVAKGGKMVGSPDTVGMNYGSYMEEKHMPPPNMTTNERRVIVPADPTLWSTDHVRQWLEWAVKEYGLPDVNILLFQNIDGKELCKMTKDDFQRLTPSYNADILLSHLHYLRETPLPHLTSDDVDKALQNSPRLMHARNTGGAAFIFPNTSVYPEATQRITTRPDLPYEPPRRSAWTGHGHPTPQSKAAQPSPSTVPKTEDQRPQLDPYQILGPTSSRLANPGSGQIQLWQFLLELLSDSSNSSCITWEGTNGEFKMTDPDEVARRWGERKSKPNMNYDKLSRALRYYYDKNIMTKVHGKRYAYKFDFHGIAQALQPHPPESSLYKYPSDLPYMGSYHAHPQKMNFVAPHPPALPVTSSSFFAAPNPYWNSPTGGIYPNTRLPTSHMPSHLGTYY
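His-tagged ERG Ets domain (1 uM in the protein solution; 300mM KCl, 50mM Tris-HCl, 1mM EDTA, 1mM DTT, pH 7.5) received compound, then a probe mix of 5 nM fluorescein-DNA and 100nM Texas-615-DNA. Fluorescence polarization was read for both dyes.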
G9a inh = qHTS Assay for Inhibitors of Histone Lysine Methyltransferase G9a | G9a H3K9 monomethylation, AlphaScreen, 2 h | Histone-lysine N-methyltransferase EHMT2 (Homo sapiens), Q96KQ7 | actives 8.8% (n = 350,000) | Potency, µM (highest dose often 102 µM), for inactives: at the highest dose activity, negative = inhibition, hits mostly inhibitors; further: potency means the concentration at half of the fitted maximal effect; on the % scale 0 is the no-effect control and ±100 the full control effect; nearly all actives have a fitted effect of over 75% in size
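G9a (20 nM) was preincubated 15 min with compound, then reacted 2 h at room temperature with 500 nM biotin-H3K9 peptide and 20 µM SAM. Monomethyl-H3K9 detected by AlphaScreen using anti-H3K9me1 antibody.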
12-LOX inh = Primary qHTS assay for inhibitors of human arachidonate 12S-lipoxygenase (ALOX12): Round 2. purified 12hLO, xylenol orange hydroperoxide absorbance. Potency, µM (series often up to 108 µM), inactives show top-dose activity change, negative = inhibition, actives largely listed as inhibitors. Polyunsaturated fatty acid lipoxygenase ALOX12 (Homo sapiens), P18054. actives 1.1% (n = 580,000). AID 1671190, 2021; further: potency means the concentration at half of the fitted maximal effect; on the % scale 0 is the no-effect control and ±100 the full control effect
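Purified human 12hLO at 150 nM in 25 mM Hepes, 0.01% Triton X-100, pH 7.0, preincubated 15 min at room temperature with compound. Reaction started with 40 uM arachidonic acid, 30 min at room temperature. Hydroperoxide measured by Fe-xylenol orange, 573/405 nm absorbance ratio.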
HP1b chromo inh = HTS for Inhibitors of HP1-beta Chromodomain Interactions with Methylated Histone Tails; Potency, µM (doses to about 114 µM), for inactives: at the highest dose activity change, negative = inhibition, hits mostly inhibitors; actives 0.56% (n = 390,000); AlphaScreen HP1-beta / biotin-H3K9me3 peptide binding; AID 540317, 2011; further: potency means the concentration at half of the fitted maximal effect; nearly all actives have a fitted effect of over 70% in size; inactives centre near 23
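AlphaScreen: HP1-beta (50 nM) preformed 30 min with biotin-H3(1-18)K9me3 peptide (50 nM) in PBS pH 7.4, 0.01% Tween-20. Compound added for 30 min at RT, then streptavidin donor/nickel chelate acceptor beads (10 ug/mL) for 30 min.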
GLS inh = qHTS for Inhibitors of Glutaminase (GLS). Glutaminase kidney isoform, mitochondrial (Homo sapiens), O94925. GLS enzymatic activity, qHTS titration. Potency, µM (highest dose often 45.5 µM), for the others: at the highest dose activity change, negative = inhibition, actives largely listed as inhibitors. actives 0.21% (n = 410,000). AID 624170, 2012; further: potency means the concentration at half of the fitted maximal effect; on the % scale 0 is the no-effect control and ±100 the full control effect
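Coupled fluorescence readout: glutamate oxidase/HRP/Amplex Red detect glutamate formed by hKGA from L-glutamine (1 mM solution added). Buffer 45 mM KH2PO4 pH 8.2, 0.02% Tween-20; reads at t0 and 30 min RT.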
JMJD2A Tudor inh = qHTS Assay for Inhibitors of JMJD2A-Tudor Domain; Lysine-specific demethylase 4A (Homo sapiens), O75164; AlphaScreen JMJD2A-Tudor / H3K4me3 peptide binding; Potency, µM (top dose mostly 114 µM), for inactives: at the top dose activity change, negative = inhibition, usual class: inhibitors; actives 4.4% (n = 390,000); further: potency means the concentration at half of the fitted maximal effect; on the % scale 0 is the no-effect control and ±100 the full control effect; nearly all actives have a fitted effect of over 50% in size
RGS4 inh = Inhibitors of Regulator of G Protein Signaling (RGS) 4: qHTS | Transcreener GDP fluorescence polarization, RGS4-accelerated GTP hydrolysis | actives 0.039% (n = 390,000) | AID 504845, 2011 | Regulator of G-protein signaling 4 (Homo sapiens), P49798 | Potency, µM (titrated, usually from 114 µM), without a hit: at the highest dose activity change, negative = inhibition, usual class: inhibitors; further: potency means the concentration at half of the fitted maximal effect; on the % scale 0 is the no-effect control and ±100 the full control effect; nearly all actives have a fitted effect of over 75% in size; some results filed as inactive show a strong effect at the top dose
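MLSMR compounds (23 nl, pin-transferred) preincubated 10 min at room temperature with a 500nM (2x) first reagent, then RGS4 at 900nM (2x) plus Transcreener GDP mix added; fluorescence polarization (620/688 nm) read before and after 90 min at 30 °C.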
PI4K2A inh = qHTS for small molecular inhibitors of PI4K2A. AID 1346378, 2018. purified PI4K2A, ADP-Glo luminescence, 1 h; hits give low values. activity change, negative = inhibition, % at 76.9 µM. Phosphatidylinositol 4-kinase type 2-alpha (Homo sapiens), Q9BTU6. actives 0.13% (n = 420,000); in the data active means activity change below about -50%; inconclusive means mostly about -30% to -49%;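 further: -100% = wells without enzyme as full effect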
Target sequence (Q9BTU6 whole entry, looked up): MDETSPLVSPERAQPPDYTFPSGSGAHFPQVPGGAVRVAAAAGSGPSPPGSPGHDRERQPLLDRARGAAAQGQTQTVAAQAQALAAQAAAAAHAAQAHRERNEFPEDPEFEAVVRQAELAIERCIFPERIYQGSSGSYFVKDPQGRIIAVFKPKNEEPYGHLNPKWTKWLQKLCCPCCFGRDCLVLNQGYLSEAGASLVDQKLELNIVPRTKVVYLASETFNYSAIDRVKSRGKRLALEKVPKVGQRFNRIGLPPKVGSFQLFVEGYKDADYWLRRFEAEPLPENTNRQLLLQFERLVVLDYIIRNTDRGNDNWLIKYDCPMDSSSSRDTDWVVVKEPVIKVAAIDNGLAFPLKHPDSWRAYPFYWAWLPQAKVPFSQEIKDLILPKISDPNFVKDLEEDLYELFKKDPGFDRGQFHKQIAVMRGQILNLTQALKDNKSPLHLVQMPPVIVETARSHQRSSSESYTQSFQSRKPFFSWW
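In this quantitative HTS, ADP production by PI4K2A was quantified luminescently after 1 h at ambient temperature; 100 microM adenosine served as plate-quality control.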
Active calls of the source: *; ? = inconclusive; . = not tested or not shown; [ ] = remark or other dose. Unless noted, the call rests on the fitted dose curve; in most records, active means well fitted curve in the direction sought with a large enough effect; inconclusive means small, poorly fitted or top-dose-only effect, or another doubt; inactive means no such curve, though single readings can be large; an effect the other way counts as inactive or inconclusive. Some of the compounds tested (hit frequency here may not be typical).

HP1b chromo inh	G9a inh	RGS4 inh	ERG-DNA inh	12-LOX inh	PI4K2A inh	JMJD2A Tudor inh	GLS inh	Molecule
34%	-6%[59 µM]	-16%	-8%	-25%	-3	13%	.	C=CCNc1nc(N(c2ccccc2)c2ccccc2)nc(-n2ccnc2)n1
-7%	-43%[59 µM]	?	15%	?	-8	?	-7%	N#CC1=C(S)N=C(N)C(c2nc(-c3ccccc3)cs2)C12CCCC2 (stereo not drawn)
27%	14µM*	-14%	-14%	-18%	2	-36%	2%	COc1ccc(N(CCCN2C(=O)c3cccc4cccc(c34)C2=O)C(=O)c2cccnc2)cc1
15%	4%	9%	-1%	-5%	3	-11%	-4%	CC(=O)c1cc(-c2ccc(F)cc2)n(CCC(=O)Nc2cccnc2)c1C
?	28µM*	-20%	-3%	-18%	-4	?	1%	COc1ccccc1NS(=O)(=O)c1ccc(N/N=C(\C)C(C)C)c([N+](=O)[O-])c1
12%	?	-5%	5%	-25%	-2	-19%	-8%	CCOC(=O)c1ccc(NC(=O)c2c(NC(C)=O)sc3c2CCC(C)C3)cc1 (stereo not drawn)
-34%	79µM*	?	1%	-3%	-4	-21%[11.4 µM]	0%	O=C(c1ccc([N+](=O)[O-])cc1)N1CCSC1c1cccc(Cl)c1 (stereo not drawn)
-5%	?	-14%	0%	-9%	2	-5%	?	O=C(O)c1ccc2c(=O)n3c(nc2c1)/C(=C/c1cccc(Cl)c1Cl)CC3
26%	2%[59 µM]	8%	.	-6%	0	-28%	-4%	O=C(c1cccc(COc2ccc(Cl)cc2Cl)c1)N1CCN(c2ccccn2)CC1
-7%	13µM*	6%	-5%	-18%	-1	?	?	CCc1cc(-c2n[nH]c(C)c2-c2nc(C)cs2)c(O)cc1OC
?	?	7%	.	-20%	5	?	2%	S=C(c1ccccc1)N1CCCc2ccccc21
2%	?	24%	-4%	1%	2	-27%	1%	O=C(NCCCn1ccnc1)c1cc(-c2ccc(Br)cc2)on1

Full records, quoted from the list. Screens in order: HP1b chromo inh	G9a inh	RGS4 inh	ERG-DNA inh	12-LOX inh	PI4K2A inh	JMJD2A Tudor inh	GLS inh
N#CC1=C(S)N=C(N)C(c2nc(-c3ccccc3)cs2)C12CCCC2 (stereo not drawn) reads -7%	-43%[59 µM]	?	15%	?	-8	?	-7%
COc1ccccc1NS(=O)(=O)c1ccc(N/N=C(\C)C(C)C)c([N+](=O)[O-])c1 reads ?	28µM*	-20%	-3%	-18%	-4	?	1%
O=C(NCCCn1ccnc1)c1cc(-c2ccc(Br)cc2)on1 reads 2%	?	24%	-4%	1%	2	-27%	1%

Additional structures.
HP1b chromo inh	G9a inh	RGS4 inh	ERG-DNA inh	12-LOX inh	PI4K2A inh	JMJD2A Tudor inh	GLS inh	Molecule
-37%	?	6%	2%	0%	-2	?	0%	COc1ccc(/C=N/NC(=O)CCn2cnc(-c3ccccc3)c2-c2ccccc2)cc1OC
22%	25%	-4%	-1%	17%	1	-14%	-4%	Cc1ccc2oc(C(=O)NCc3ccc(S(N)(=O)=O)cc3)cc(=O)c2c1
?	?	-2%	11%[15.4 µM]	-14%	5	?	-12%	O=[N+]([O-])c1ccccc1OCCCNCc1ccccc1
-18%[57 µM]	?	-5%	-5%	-7%	-1	?	5%	Cc1cccc(-n2ccnc2SCC(=O)Nc2ccc(F)cc2F)c1C
-13%	28µM*	-3%	6%	-14%	3	-34%	-2%	CCOC(=O)c1cc2c(ccn2C)n1CC(=O)N(Cc1ccccc1)c1ccc(F)cc1
-18%	11µM*	10%	3%	-20%	0	?	-4%	COc1ccccc1OCc1nc(C#N)c(NCc2ccc(C)cc2)o1
?	35µM*	-15%	19%	50%[activator]	-10	?	-4%	CN(C)S(=O)(=O)c1cc(NC(=O)CN2CCCc3ccccc32)ccc1Cl
31%[activator]	-13%[59 µM]	-7%	6%	-15%	1	?	44%[activator]	NC(=O)CSc1nnc(Cc2csc(Nc3ccc(F)cc3)n2)n1Cc1ccccc1
?	?	15%	-7%	-14%	6	?	19%	O=C(NCc1ccco1)c1ccc(N2CCCCC2)c([N+](=O)[O-])c1
-12%	?	21%	-3%	-14%	6	?	-1%	COC(=O)c1cc(=O)n(Cc2cccs2)c(=Nc2ccccc2)s1
?	.	-32%	7%	0%	-1	?	-5%	Cc1ccc(NC2CCCN(C(=O)c3ccc4[nH]ccc4c3)C2)cc1C (stereo not drawn)
26%	-22%[59 µM]	13%	-4%	?	-16	-31%	8%	CC(C)c1ccc(/C=C(\C#N)c2nc(-c3ccc(O)cc3)cs2)cc1

Overlap with the part before: two entries, then new ones.
HP1b chromo inh	G9a inh	RGS4 inh	ERG-DNA inh	12-LOX inh	PI4K2A inh	JMJD2A Tudor inh	GLS inh	Molecule
?	.	-32%	7%	0%	-1	?	-5%	Cc1ccc(NC2CCCN(C(=O)c3ccc4[nH]ccc4c3)C2)cc1C (stereo not drawn)
26%	-22%[59 µM]	13%	-4%	?	-16	-31%	8%	CC(C)c1ccc(/C=C(\C#N)c2nc(-c3ccc(O)cc3)cs2)cc1
?	2.2µM*	4%	-6%	-17%	1	?	1%	COc1ccc(OCc2ccc(-c3nc(C#N)c(N4CCCCC4)o3)o2)cc1
-6%	-10%	23%	2%	36%	-2	-22%	3%	CCN(CC)CCn1c(NC(=O)c2ccc(C)cc2)nc2ccccc21
-15%	?	-42%	10%	?	1	-23%	-2%	CCOC(=O)C1=C(C)N=c2s/c(=C\C(=O)OC)c(=O)n2C1c1ccc(OC)cc1 (stereo not drawn)
-12%	8.9µM*	0%	5%	3%	-4	?	-1%	COc1cc(OC)cc(C(=O)Nc2cc(-c3nc4cccnc4s3)ccc2C)c1
30%	-28%[2.33 µM]	-15%	-8%	7%	-8	19%	-3%	Cc1sc2ncn(CC(=O)NCCCC(=O)N3CCN(c4ccccn4)CC3)c(=O)c2c1C
-6%[57 µM]	.	-26%	-10%	-10%	-3	?	11%	CC(C)c1ccc(/C=C2\SC(=O)N(CC(=O)NCCCn3ccnc3)C2=O)cc1
?	0%	-21%	20%	-14%	1	?	3%	O=C(N/N=C1\CC(c2ccccc2)Oc2ccccc21)c1ccc(O)cc1 (stereo not drawn)
64%[activator]	?	-6%[11.4 µM]	-2%	-12%	-5	-1%[11.4 µM]	-4%	CN(C)CCCN(C(=O)c1ccco1)c1nc2c(F)cccc2s1
4%	-14%	-2%	4%	-28%	4	-23%	3%	Cc1cccc(Cn2c(=O)n(CCCC(=O)NCc3ccco3)c(=O)c3ccccc32)c1
-15%	22µM*	-1%	-13%	-1%	5	-15%	1%	Cc1cnc(C(=O)N2CCCC(C(=O)c3ccc(C(F)(F)F)cc3)C2)cn1 (stereo not drawn)
-7%	?	9%	9%	-8%	22	-27%[57.1 µM]	-2%	Cc1ccc(CN2C(=O)c3ccccc3NC23CCN(Cc2ccccc2)CC3)cc1
23%	-4%[59 µM]	-16%	3%	-9%	0	-28%	7%	COc1ccc(-c2cc(C(C)=O)c(C)n2CCC(=O)NC2CCCCC2)cc1
-9%	.	-32%	-4%	0%	5	?	8%	CCOc1cc(NC(=O)c2ccccc2C(=O)O)c(OCC)cc1NC(=O)c1ccccc1F
?	-44%	-19%	-5%	35µM*	5	?	?	CCNC(=S)NN=C1c2ccccc2-c2ccccc21
?	.	-20%	8%	-25%	-3	?	-21%	Cc1ccc(-c2csc(N=C(N)N)n2)c(C)c1
31%[activator]	-14%	-3%	-2%	0%	-10	-29%	13%	COc1ccc(/C=C2\CCn3c2nc2cc(C(=O)O)ccc2c3=O)cc1
24%	.	-24%	15%	0%	5	?	-7%	Cc1nc(N2CCOCC2)nc(N2CCCCC2C)c1[N+](=O)[O-] (stereo not drawn)
31%	20%[59 µM]	-12%	3%	0%	-7	-13%	-8%	CCN1C(=O)c2cccc3c(S(=O)(=O)NCc4cccnc4)ccc1c23
-2%	?	19%	1%	-9%	-1	-19%	4%	CCc1cccc(C)c1NC(=O)c1cc(S(=O)(=O)N(C)Cc2ccccc2)ccc1F
25%	4%	-13%	-2%	19%	-1	?	2%	O=C(CCS(=O)(=O)c1ccc(F)cc1)Nc1nnc(-c2cccs2)o1
-48%	?	-14%	3%	0%	0	?	2%	Cn1cccc1-c1nc2ccc(NC(=O)c3ccccc3)cc2[nH]1
46%[activator]	3%[59 µM]	-12%	1%	6%	1	16%	-1%	O=c1oc2ccc(Br)cc2cc1-c1csc(-c2ccccc2)n1
29%	?	-38%	-3%	7%	-10	-3%	-7%	CC(C(=O)NC1C(=O)N2C(C(=O)O)=C(CSc3nnnn3C)CSC12)n1cc(Cl)cn1 (stereo not drawn)
60%[activator]	1%[59 µM]	-13%	1%	-45%	-1	6%	1%	Cc1ccc(/C=C(\C#N)c2nc(-c3ccc(-c4ccccc4)cc3)cs2)cc1
23%	9%[12.7 µM]	10%	12%	-16%	-9	-8%	-2%	Cc1ccc(N2C(N)=NC(N)=NC23CCCC3)c(C)c1
